# LANA-nucl inh: LANA-nucleosome interaction inhibition; FITC-LANA1-23 / chicken nucleosome fluorescence polarization; active compounds read low; z-score (no concentration beside the values); 51,000 compounds, 0.3% hits; AID 720717;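 active = both repeat wells score below -2 in polarization z-score versus plate sample wells, excluding overly bright wells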;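 note: 100 nL library stock added to about 30 µL; numbers are from one replicate; some results filed as inactive read as strong as hits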
#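 Assay system: purified chicken nucleosomes with FITC-labelled LANA N-terminal peptide (1-23) / Probe or stimulus: 50 nM FITC-LANA1-23 probe / Compound dosing: pin-transferred compound, 100 nL / Times: compound with peptide–nucleosome mix 10–45 min at room temperature / Technique: fluorescence polarization, 480 nm excitation, 535 nm parallel and perpendicular emission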
# Ab BasE inh: BasE siderophore biosynthesis inhibition; purified BasE, fluorescence polarization binding displacement; AID 485350; inhibition, % (test concentration not listed); 84,000 compounds, 0.1% hits;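 active = both replicates above 25% with normal brightness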;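 note: 0% = negative plate control signal and 100% = positive plate control signal; stock transfer was 100 nL into about 30 µL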
# Active calls of the source: *; . = no result given; & = joins results of further samples.
no.	Molecule	LANA-nucl inh	Ab BasE inh
1	N#CC1(NC(=O)Cn2cc(Br)ccc2=O)CCCC1	.	-0.3
2	O=C(CCSc1nc(-c2ccco2)cc(C(F)(F)F)n1)NCCN1CCOCC1	-0.629	-0.2
3	COc1cc(C(=O)N2CCN(Cc3ccccc3)CC2)cc(CN2C(=O)c3ccccc3C2=O)c1OC	.	1.7
4	NC(=O)c1ccc(N=Cc2ccc[nH]2)cc1	0.412	4.8
5	Cc1nnc(-c2cccc(C(F)(F)F)c2)[nH]c1=O	-0.592	.
6	CC1(C)NC(=O)N(CC(O)CNC23CC4CC(CC(C4)C2)C3)C1=O (stereo unspecified)	-0.102	1.5
7	O=C(O)/C=C/c1ccc(/C=C/C(=O)O)cc1	0.451	-1.5
8	CC1=CC(C)(C)N(Cc2ccccc2)c2cc(C)ccc21	-0.488	0.1
9	S=C(Nc1ccccc1)N1CCCCCC1	-0.0465	-2.6
10	CCn1c(N)c(C(=O)c2cccc(S(=O)(=O)N(C)C3CCCCC3)c2)c(=O)[nH]c1=O	.	-1.8
11	O=C(O)CCS(=O)(=O)c1ccc(-c2ccccc2)cc1	0.51	1.7
12	Cc1noc2c1C(c1cccnc1)C1=C(CCCC1=O)N2 (stereo unspecified)	.	1.6
13	Cc1ccc(N2CSCC2=O)cc1	0.197	.
14	O=C(C1CCN(c2nc3ccccc3n3cccc23)CC1)N1CCN(c2ccccc2)CC1	-0.581	1.2
15	Cc1ccc(-n2cc3cnnc(-c4ccccc4)c3n2)cc1	.	1.5
16	Cc1ccc(S(=O)(=O)/C(C#N)=C\c2cn(-c3ccccc3)nc2-c2cc3ccccc3o2)cc1	-0.365	1.6
17	N#Cc1ccc(-c2cccnc2)[nH]c1=O	0.0345	.
18	CCn1c2c(c(=O)[nH]c1=O)C(c1ccc(OC)cc1)C1=C(N2)c2ccccc2C1=O (stereo unspecified)	-1.22	4.4
19	O=C(CN1CCc2ccccc2C1)NCc1ccc(F)cc1	1.19	-0.6
20	CC1CN(S(=O)(=O)c2ccc(C(=O)NC3=NCCS3)cc2)CC(C)O1 (stereo unspecified)	.	-0.7
21	COc1ccc(Cc2nnc(C(=O)NCc3ccccc3)o2)cc1OC	1.27	1.0
22	Oc1oc(-c2ccccc2)cc1C=Nc1ccccc1	-0.462	1.4
23	COC(=O)c1nnc(Nc2ccc(Oc3ccccc3)cc2)c2ccccc12	.	1.2
24	O=C(NCc1ccccc1CN1CCCC1)c1cc(=O)[nH]c2ccccc12	.	3.0
25	CC(OC(=O)Cc1c[nH]c2ccccc12)C(=O)NC1CCCC1 (stereo unspecified)	0.678	2.4
26	O=C(c1ccc(S(=O)(=O)Nc2ccc3c(c2)OCCO3)s1)N1CCCC1	1.11	-2.8
27	Cc1cc(Cl)c2cc(O)ccc2n1	-0.101	2.9
28	O=C(CCNS(=O)(=O)c1ccc(Cl)cc1)N1CCN(c2ccccn2)CC1	0.512	-0.1
29	COCCNc1ncc(C(=O)OC)c2ccccc12	-0.12	-1.9
30	Cc1ccc(C(=O)Nc2cc3c(oc2=O)CC(C)(C)CC3=O)cc1	-0.457	1.7
31	COC(=O)/C=c1/s/c(=C(/C#N)C(N)=O)n(-c2ccccc2)c1=O	1.39	-3.2
32	OC(c1ccco1)c1nccc2ccccc12 (stereo unspecified)	-0.381	-0.6
33	N#Cc1ccc2snnc2c1	0.479	-0.5
34	COc1ccc(/C=N/N=C2\CC(C)(C)Cc3n[nH]c(=O)cc32)cc1OC	-0.447	1.5
35	Cc1ccc(-c2cnc(NC(=O)CCC(=O)N3CCCCC3)n2C)cc1	0.0465	-1.9
36	Cc1cccc(C)c1OCCCCN1CC(C)OC(C)C1 (stereo unspecified)	-0.484	2.6
37	C#CCN(C)CCCOc1ccc(Cl)cc1Cl	1.23	-0.4
38	CCCc1[nH]c(Br)nc1-c1ccccc1	.	1.3
39	COc1ccc(C2CC(=O)C3=C(C2)NC(=O)CC3c2ccc(OC)c(OC)c2)cc1OC (stereo unspecified)	0.019	-0.3
40	Cc1nc(-c2ccc(S(=O)(=O)N3CCCc4ccccc43)s2)cs1	.	1.3
41	CCc1ccc2[nH]c(=O)c(C(c3nnnn3C3CCCCC3)N3CCCC3)cc2c1 (stereo unspecified)	-0.128	-0.6
42	CC1(C)Cc2ccccc2C(Nc2nc(-c3ccccc3)cs2)=N1	.	-0.1
43	CCCc1[nH]nc2c1C(CCc1ccccc1)C(C#N)=C(N)O2 (stereo unspecified)	.	0.1
44	Cc1cccc(NC(=O)CCN2CCC(C)CC2)c1	-0.139	-1.4
45	CN(CC(=O)N1CCc2ccccc2C1)S(=O)(=O)c1ccc(Cl)cc1	.	0.7
46	CC(c1ccc(-n2cncn2)cc1)N(C)S(=O)(=O)c1cccc(C#N)c1 (stereo unspecified)	.	-0.9
47	COc1cc2c(cc1OC)C(C)N(C=C(C#N)C#N)CC2 (stereo unspecified)	-0.263	0.6
48	CN(CCc1ccccn1)C(=S)NC(=O)c1ccco1	.	0.8
49	COc1ccc(CN(Cc2cc3cccc(C)c3n3nnnc23)C(=O)N2CCOCC2)cc1	-0.0655	-1.5
50	Cc1cc(Cl)cc(C)c1OCC1COS(=O)O1 (stereo unspecified)	-0.961	-1.3

# 19 entries out of the list, sorted by length of the SMILES, low to high:
no.	Molecule	LANA-nucl inh	Ab BasE inh
33	N#Cc1ccc2snnc2c1	0.479	-0.5
27	Cc1cc(Cl)c2cc(O)ccc2n1	-0.101	2.9
32	OC(c1ccco1)c1nccc2ccccc12 (stereo unspecified)	-0.381	-0.6
37	C#CCN(C)CCCOc1ccc(Cl)cc1Cl	1.23	-0.4
29	COCCNc1ncc(C(=O)OC)c2ccccc12	-0.12	-1.9
50	Cc1cc(Cl)cc(C)c1OCC1COS(=O)O1 (stereo unspecified)	-0.961	-1.3
44	Cc1cccc(NC(=O)CCN2CCC(C)CC2)c1	-0.139	-1.4
36	Cc1cccc(C)c1OCCCCN1CC(C)OC(C)C1 (stereo unspecified)	-0.484	2.6
48	CN(CCc1ccccn1)C(=S)NC(=O)c1ccco1	.	0.8
47	COc1cc2c(cc1OC)C(C)N(C=C(C#N)C#N)CC2 (stereo unspecified)	-0.263	0.6
43	CCCc1[nH]nc2c1C(CCc1ccccc1)C(C#N)=C(N)O2 (stereo unspecified)	.	0.1
40	Cc1nc(-c2ccc(S(=O)(=O)N3CCCc4ccccc43)s2)cs1	.	1.3
45	CN(CC(=O)N1CCc2ccccc2C1)S(=O)(=O)c1ccc(Cl)cc1	.	0.7
26	O=C(c1ccc(S(=O)(=O)Nc2ccc3c(c2)OCCO3)s1)N1CCCC1	1.11	-2.8
31	COC(=O)/C=c1/s/c(=C(/C#N)C(N)=O)n(-c2ccccc2)c1=O	1.39	-3.2
34	COc1ccc(/C=N/N=C2\CC(C)(C)Cc3n[nH]c(=O)cc32)cc1OC	-0.447	1.5
41	CCc1ccc2[nH]c(=O)c(C(c3nnnn3C3CCCCC3)N3CCCC3)cc2c1 (stereo unspecified)	-0.128	-0.6
49	COc1ccc(CN(Cc2cc3cccc(C)c3n3nnnc23)C(=O)N2CCOCC2)cc1	-0.0655	-1.5
39	COc1ccc(C2CC(=O)C3=C(C2)NC(=O)CC3c2ccc(OC)c(OC)c2)cc1OC (stereo unspecified)	0.019	-0.3

# One compound at a time, from the list above. Order of values: LANA-nucl inh | Ab BasE inh
# `COc1ccc(C2CC(=O)C3=C(C2)NC(=O)CC3c2ccc(OC)c(OC)c2)cc1OC` (stereo unspecified) is listed as 0.019 | -0.3
# `COC(=O)/C=c1/s/c(=C(/C#N)C(N)=O)n(-c2ccccc2)c1=O` is listed as 1.39 | -3.2
# `CCCc1[nH]nc2c1C(CCc1ccccc1)C(C#N)=C(N)O2` (stereo unspecified) is listed as . | 0.1
# `NC(=O)c1ccc(N=Cc2ccc[nH]2)cc1` is listed as 0.412 | 4.8
# `O=C(c1ccc(S(=O)(=O)Nc2ccc3c(c2)OCCO3)s1)N1CCCC1` is listed as 1.11 | -2.8

# (further entries)
no.	Molecule	LANA-nucl inh	Ab BasE inh
51	CC(C)(C)NC(=O)CCN1C(=O)/C(=C\c2ccco2)SC1=S	0.739	0.2
52	CCOC(=O)c1nn(-c2ccccc2)c(=O)c2c(N)scc12	0.068	-1.5
53	O=C(C=C1SCCS1)C1CC1c1ccccc1 (stereo unspecified)	.	-4.0
54	Cc1cc(NC(=O)c2sc3nc(-c4ccccc4)cc(C(F)(F)F)c3c2N)no1	0.417	11.8
55	Cc1ccc(Nc2cc(C(=O)O)c3ccccc3n2)c(C)c1	-1.39	-1.1
56	O=C(NC1CCCc2ccccc21)c1ccc2c(=O)n3c(nc2c1)CCCCC3 (stereo unspecified)	-1.15	-2.5
57	O=C(CCc1ccc(-c2ccccc2)o1)Nc1ccccc1C(=O)NC1CC1	.	0.5
58	CCC1C(=O)NCCN1C(=O)c1ccc(C)c(I)c1 (stereo unspecified)	-0.064	1.1
59	COC(=O)C1=C(C)N(c2ccccc2F)C(=O)/C1=C\c1cccc(OC)c1O	.	1.6
60	CC(=O)n1c(C)cc(=O)[nH]c1=O	.	-1.4
61	CCOC(=O)N/N=C/c1cccc(Br)c1	.	-2.0
62	CCN(CC(=O)Nc1ccccc1Br)C1CCCCC1	.	0.8
63	Cc1ccnc(NC(=O)COc2ccc(Cl)cc2Cl)n1	0.501	0.3
64	CCC(C(=O)N1CCC(C)CC1)c1ccccc1 (stereo unspecified)	-0.726	1.5
65	CCOc1cc2c(cc1OCC)C1C(C(=O)NCCCN3CCN(CC)CC3)c3ccccc3C(=O)N1CC2 (stereo unspecified)	0.394	0.6
66	O=c1c2oc3ccccc3c2ncn1Cc1ccccc1	0.039	-1.8
67	CCOC(=O)Oc1cc2oc(=O)sc2cc1Cl	-0.723	0.8
68	Cc1ccccc1C(OCCN(C)C)c1ccccc1 (stereo unspecified)	-0.227&-0.045&-0.138	0.6&1.9
69	CCOc1ccc2c(c1)sc1c(C)cc(=O)oc12	.	-5.1
70	CCCNc1c(N)n(-c2ccccc2)c(=O)[nH]c1=O	-2.1	5.4
71	Cc1cc(NS(=O)(=O)c2ccc(NC(=S)NCc3ccccc3)cc2)no1	-1.6	2.6
72	O=C(CSc1ccc(F)cc1)N1CCCC1	0.123	2.4
73	O=C(c1cccc(COCC(F)(F)C(F)F)c1)N1CCN(c2ccccc2)CC1	0.419	0.9
74	CN1CCC(NC(=O)c2cc(Br)ccc2Cl)CC1	0.097	3.7
75	N#CCC(Cc1ccccc1)c1ccc2c(c1)OCO2 (stereo unspecified)	-1.4	-1.5

# Not all compounds are listed. The share of hits here may be higher or lower than overall.
